StopGo reporter – FMDV 2A StopGo reporter, luciferase signal. human cells with a luciferase reporter of 2A StopGo recoding; control for the full effect not named in the record. Potency, µM (top dose mostly 57.9 µM), for inactives: at the highest dose signal change, negative = less light. actives 1.2% (n = 410,000); active = well fitted falling curve with a large enough effect; inconclusive = small, poorly fitted or top-dose-only effect; inactive = no such curve, though single readings can be large or run the other way; tested in HEK293T cells; further: on the % scale 0 is the no-effect control and ±100 the full control effect; nearly all actives have a fitted effect of over 45% in size; luciferase light after 4 h
SARS PLpro yeast – inhibitors of SARS-CoV papain-like protease in yeast; AID 485353; Potency, µM (doses to about 32.9 µM), for inactives: top-dose activity, positive = growth rescue; S. cerevisiae expressing SARS-CoV PLpro, growth rescue; control for the full effect not named in the record; actives 0.19% (n = 330,000); active means well fitted rising curve with a large enough effect; inconclusive means small, poorly fitted or top-dose-only effect; inactive means no such curve, though single readings can be large or run the other way; further: 0% is about no effect; nearly all actives have a fitted effect of over 55% in size; growth read by luminescence after 48 h
RE007 growth inh – less growth of the S. pombe RE007 Vpr strain | Potency, µM (top dose mostly 92.2 µM), without a hit: top-dose activity change, negative = less growth | AID 651644 | actives 0.21% (n = 360,000) | S. pombe RE007 Vpr strain, BacTiter-Glo ATP luminescence, 24 h; control for the full effect not named in the record; active = well fitted falling curve with a large enough effect; inconclusive = small, poorly fitted or top-dose-only effect; inactive = no such curve, though single readings can be large or run the other way;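 further: on the % scale 0 is the no-effect control and ±100 the full control effect; nearly all actives have a fitted effect of over 50% in size; the assay follows cell death caused by Vpr and the record does not say whether a fall means rescue or toxicity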
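Fission yeast RE007 carrying one integrated HIV-1 vpr copy, seeded at OD 0.01 in PMG+AL medium with 23 nL pinned compound. Grown 24 h at 30 degrees; viability read by BacTiter-Glo luminescence after 5 min.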
An asterisk follows results filed as active; ? = inconclusive; [ ] = another dose, or the depositor's remark. Potency means the concentration at half of the fitted maximal effect. An excerpt (hit frequency here may not be typical).

Value order: StopGo reporter, SARS PLpro yeast, RE007 growth inh
- N#Cc1ccccc1NC(=O)CSc1nnc(-c2ccncc2)o1
→ -2%, 0%, -8%
- CC(C)(OC(=O)c1ccc(C(F)(F)F)cc1)c1cc2ccccc2c(=O)o1
→ -29%, 1%, 11%
- C[C@H]1CN([C@@H](C)CO)C(=O)c2cc(NS(=O)(=O)c3ccc(Cl)cc3)ccc2O[C@@H]1CN(C)CC1CCCCC1
→ -22%, -2%, -17%
- Cc1ccccc1NC(=O)Cc1nc(COC(=O)COc2ccccc2C(C)C)cs1
→ -12%, 0%, 10%
- COc1ccc(OC)c(C(=O)COC(=O)c2ccc([N+](=O)[O-])o2)c1
→ -15%, -8%, -17%
- Cc1ccc(CN2CC(C(=O)NC(c3nc4ccccc4[nH]3)C(C)C)CC2=O)cc1 (stereo not drawn)
→ 9%, 3%, -5%
- O=S(=O)(c1cccs1)N1CCN(CCOc2ccc(Cl)cc2)CC1
→ ?, -4%, -9%
- COCCNC(=O)CCCn1c(=O)c2cc(OC)c(OC)cc2n(CC(=O)c2cccc(OC)c2)c1=O
→ 4%, 6%, 20%
- COc1ccc(N(C(C)C(=O)N/N=C(\C)C(C)(C)C)S(C)(=O)=O)cc1 (stereo not drawn)
→ 7%, 4%, 17%
- Cc1ccc(NC(=O)c2cccc(-n3cnnn3)c2)cc1Cl
→ -2%, 3%, 3%
- Cc1ccc(C(=O)c2ccccc2C(=O)OCC(=O)N2C(C)CCCC2C)cc1 (stereo not drawn)
→ -6%, 2%, -2%
- COC(=O)C1=C(c2ccc(Cl)c(C(F)(F)F)c2)C[C@@H]2CC[C@H]1N2C(=O)NCc1cc(C)oc1C(F)(F)F
→ ?, 2%, 1%
- CCOC(=O)c1sc2nc(C)nc(SC(C)C(=O)NC3CC3)c2c1C (stereo not drawn)
→ -11%, -6%, 1%
- COc1ccc(C2CC(=O)Oc3ccc(OC)cc32)cc1 (stereo not drawn)
→ -20%, -4%, -7%
- C[C@H](CO)N1C[C@H](C)[C@@H](CN(C)C(=O)NC2CCCCC2)Oc2c(NS(=O)(=O)c3cn(C)cn3)cccc2C1=O
→ 43%[activator], 5%, 3%
- Cc1ccc(S(=O)(=O)Nc2ccccc2N2CCCCC2)cc1
→ -12%, 6%, 7%
- COC(=O)C1=C(c2cccc(Cl)c2)C[C@@H]2CC[C@H]1N2C(=O)NCC1CC1
→ -12%, -2%, -11%
- CCN(CC)S(=O)(=O)c1ccc(OC)c(NC(=O)c2cccc(C)c2[N+](=O)[O-])c1
→ 23%, 1%, 4%
- COc1cccc(NC(=O)COC(=O)CC2CC3CCC2C3)c1 (stereo not drawn)
→ -24%, -4%, 17%
- Cc1ccccc1OCC(=O)Nc1cc(S(=O)(=O)N2CCOCC2)ccc1N1CCCC1
→ 1%, 2%, -4%

(next part)
Value order: StopGo reporter, SARS PLpro yeast, RE007 growth inh
- O=C1/C(=C/c2cccnc2)Cc2ccc(Cl)cc21
→ 10%, -1%, -4%
- C[C@H](CO)N1C[C@H](C)[C@@H](CN(C)C(=O)Nc2ccccc2)Oc2ccc(NC(=O)Nc3ccc4c(c3)OCO4)cc2C1=O
→ -1%, -2%, -1%
- O=C(C[C@@H]1C/C=C\CCC(=O)OC[C@@H]2CCCN2C1=O)N[C@H](CO)Cc1ccccc1
→ -12%, 5%, 1%
- CC(=O)OC[C@H]1O[C@@H](Oc2cc(O)cc3oc(-c4ccc(O)cc4)cc(=O)c23)[C@H](O[C@@H]2O[C@@H](C)[C@H](O)[C@@H](O)[C@H]2O)[C@@H](O)[C@@H]1O
→ -17%, 9%, 10%
- CON(C)S(=O)(=O)NC(=O)C1=C(N2CCCC2)COC1=O
→ 10%, 1%, 7%
- CCN(CC)C(=O)[C@H]1C[C@H](CC(=O)NCCN2CCOCC2)C(=O)N2CCc3c([nH]c4ccc(Cl)cc34)[C@]12C
→ -17%, 9%, -8%
- CCOc1cc(N2CCOCC2)c(OCC)cc1NC(=O)COC(=O)c1ccc(Cl)cc1N
→ -11%, 4%, -1%
- O=C(CNC(=O)c1ccc(S(=O)(=O)N2CCCC2)cc1)N/N=C/c1ccc(F)cc1
→ -6%, 1%, -1%
- O=C(O)c1ccc(C(=O)Nc2ccc(F)cc2)cc1
→ -8%, -2%, -1%
- Cc1ccc2c(c1)[C@H]1[C@H](CO2)[C@H](c2ccccc2)[C@]2(C)C(=O)Nc3cc(F)ccc3C(=O)N12
→ -34%, -15%, 9%
- CCOC(=O)[C@H]1[C@H]2COc3ccccc3[C@@H]2N2C(=O)c3c(C)cc(C)cc3NC(=O)[C@@]12C
→ ?, -1%, -3%
- O=C(N/N=C/c1ccccc1Br)c1cccc(S(=O)(=O)N2CCOCC2)c1
→ 29%, 3%, -1%
- Cc1ccc(NCCC(=O)c2cccs2)cc1
→ 9%, -3%, ?
- CCCCn1c(N)c(N(CC)C(=O)c2cccc(OCc3ccccc3)c2)c(=O)[nH]c1=O
→ 3%, -2%, 18%
- CCN(CC)S(=O)(=O)c1cc(NC(=O)c2ccc3c(c2)NC(=O)C(C)S3)ccc1C (stereo not drawn)
→ 25µM*, -3%, -8%
- O=C(Cn1c(=O)cnc2ccccc21)Nc1cccc(S(=O)(=O)N2CCCCC2)c1
→ -19%, 1%, 10%
- CC12CCC(C1)C(C)(C)C2NS(=O)(=O)c1ccc(F)cc1 (stereo not drawn)
→ -9%, 5%, 2%
- O=C(CCCSc1ccc(Cl)cc1)Nc1cc(S(=O)(=O)N2CCOCC2)ccc1O
→ ?, 9%, -14%
- COc1ccc(NS(=O)(=O)c2cc(C(=O)N3CCCCCC3)ccc2C)cc1
→ 64%[activator], 10%, 10%
- COCCOc1cc(NCc2ccccc2)c2ncn(C(C)C)c2c1
→ -1%, 3%, -14%

Next records:
Value order: StopGo reporter, SARS PLpro yeast, RE007 growth inh
- COc1ccc(C(=O)NCC(=O)N/N=C/c2ccc([N+](=O)[O-])s2)cc1OC
→ -31%, -2%, 4%
- O=C(COC(=O)c1cccc(OC(F)F)c1)Nc1cccc(S(=O)(=O)N2CCCC2)c1
→ -25%, -7%, -7%
- Cn1c(SCC(=O)NNC(=O)c2ccccc2)nnc1C(F)(F)F
→ 11%, 6%, -2%
- CN(C(=O)CN1C(=O)c2cccc(N)c2C1=O)C1CCCCC1
→ -1%, 1%, 6%
- N#CCOC(=O)C1CSC2(c3ccc(Br)cc3)CCC(=O)N12 (stereo not drawn)
→ 72%[activator], 0%, 3%
- CCC(=O)Nc1ccc(C(=O)CN2C(=O)NC3(CCOc4ccccc43)C2=O)cc1 (stereo not drawn)
→ -14%, 0%, 4%
- C=C(NC(C)=O)c1c(F)cccc1F
→ 11%, 5%, 3%
- Cc1cccc(NC(=O)c2nc[nH]c2C(=O)NCCCCCCNC(=O)c2[nH]cnc2C(=O)Nc2cccc(C)c2)c1
→ ?, -7%, 13%
- NCCCC[C@@H](C(=O)N1CCNCC1)n1cc(CN)nn1
→ -23%, -9%, -17%
- COc1ccc(S(=O)(=O)N(C)C[C@H]2Oc3ccc(NC(=O)CCC(F)(F)F)cc3C(=O)N([C@H](C)CO)C[C@@H]2C)cc1
→ -9%, -2%, 0%
- Cc1cccc(-c2nc(CC(=O)Nc3cccc(S(=O)(=O)NC4=NCCC4)c3)cs2)c1
→ -3%, -9%, -5%
- COc1ccccc1NS(=O)(=O)c1cccc(C(=O)NNC(=O)C(C)NC(=O)c2ccco2)c1 (stereo not drawn)
→ -12%, -1%, -5%
- Cc1ccc(NC(=O)COc2ccccc2C#N)cc1S(=O)(=O)N1CCCCCC1
→ ?, 1%, 2%
- COc1ccc2c(c1)CCCC21NC(=O)N(CC(=O)c2cc(F)ccc2F)C1=O (stereo not drawn)
→ -9%, -1%, 5%
- CC1Cc2ccccc2N1C(=O)CN(C)CC(=O)Nc1cccc(F)c1 (stereo not drawn)
→ -5%, -9%, 4%
- CC(NC(=O)c1ccccc1)C(=O)OCC(=O)c1c(N)n(C)c(=O)n(C)c1=O (stereo not drawn)
→ -23%, 0%, -8%
- Cc1ccc(C)c(OCC(=O)NCC(C)(C)N2CCOCC2)c1
→ -29%, -5%, 9%
- Cc1noc(C)c1C(=O)OCC(=O)Nc1ncc(C(F)(F)F)cc1Cl
→ -14%, 1%, 2%
- CCC(C)c1ccc(NC(=O)C2=CC=CN3CCS(=O)(=O)N=C23)cc1 (stereo not drawn)
→ 49%[activator], -3%, 2%
- O=C(NCc1ccc(F)cc1)c1cc2c(cc1Cl)N1CCCCCC1=NS2(=O)=O
→ -5%, -6%, 1%

Following part.
Value order: StopGo reporter, SARS PLpro yeast, RE007 growth inh
- COc1cccc(NC(=O)CN(C)C(=O)CNC(=O)c2sc3ccccc3c2Cl)c1
→ 38%[activator], -10%, -1%
- N#CCc1c(C#N)c(N)nc(N2CCN(C=O)CC2)c1C#N
→ -12%, 9%, 11%
- O=C(Nc1nnc(C2CC2)s1)c1ccc(Cl)nc1
→ 34%[activator], -13%, -15%
- COC(=O)CN1C(=O)[C@H]2[C@@H](/C=C/c3ccccc3)N3C(=O)CN(Cc4ccc(-c5ccccc5)cc4)C(=O)[C@@]3(C)[C@H]2C1=O
→ -15%, 6%, -1%
- O=C(COC(=O)c1ccc[nH]c1=O)NCC12CC3CC(CC(C3)C1)C2
→ 19%, 0%, -3%
- CC1=NN(c2ccccc2)C(=O)C1=C(C)C
→ 7%, -3%, -24%
- Cc1ccc(CN2C(=O)C(Cc3ccccc3)Nc3ncnc(N4CCN(c5ccccc5)CC4)c32)cc1 (stereo not drawn)
→ -2%, -25%, 11%
- CC(=O)c1c(C)[nH]c(C(=O)NNC(=O)COc2cc(C)ccc2C(C)C)c1C
→ 12%, -1%, -1%
- CN1C(=O)[C@@H]2[C@H](C1=O)[C@@H]1C(=O)Nc3ccccc3C(=O)N1[C@@H]2c1cccc(Br)c1
→ -6%, 1%, 3%
- O=C(O)CCCn1c(=S)[nH]c2c(sc3ccc([N+](=O)[O-])cc32)c1=O
→ -3%, 0%, 0%
- COc1ccc(CCn2c(C)cc(C(=O)CN3C(=O)C(=O)N(Cc4ccco4)C3=O)c2C)cc1
→ -22%, 0%, -4%
- Cc1ccc(S(=O)(=O)N2CCCCC2)cc1NC(=O)Cn1ncc(Cl)c(Cl)c1=O
→ 20µM*, 5%, 3%
- CN(C)CCCN(C(=O)c1ccco1)c1nc2c(F)cccc2s1
→ -6%, -3%, -10%
- COc1ccc(CNC(=O)CN2CCN(S(=O)(=O)c3ccccc3)CC2)cc1
→ -16%, -1%, 1%
- COc1ccc2nc(NC(=O)CCNC(=O)c3ccco3)sc2c1
→ 63%[activator], -9%, -4%
- CCN1Cc2c(cc(OC)c(OC)c2OC)-c2ccccc2S1(=O)=O
→ -21%, 4%, 1%
- O=C(COC(=O)c1ccc(O)cc1O)Nc1ccc2ccccc2c1
→ 5%, 3%, -13%
- CCOC(=O)c1ccc(-n2c(CN3CCC(C(N)=O)CC3)nc3ccc([N+](=O)[O-])cc3c2=O)cc1
→ 0%, -1%, -2%
- O=C(COC(=O)C1CC(O)CN1S(=O)(=O)c1ccccc1[N+](=O)[O-])c1ccc[nH]1 (stereo not drawn)
→ 0%, 2%, 1%
- CCC(C)[C@H]1CNCCN1CC1(c2ccccc2)CC1 (stereo partly drawn)
→ 2%, 3%, 4%

(listing goes on)
Value order: StopGo reporter, SARS PLpro yeast, RE007 growth inh
- Cc1ccc(NC(=O)Cn2cnc3c(NCc4ccccc4)ncnc32)cc1C
→ -19%, 1%, 9%
- Cc1ccc(C)c(OCc2ccc(C(=O)Nc3ccc([N+](=O)[O-])cn3)o2)c1
→ ?, 1%, -3%
- COc1cc(/C=C/C(=O)OCC(=O)c2ccccc2)cc(OC)c1OC
→ 1%, 2%, 0%
- O=C(NNC(=O)c1ccccc1[N+](=O)[O-])Nc1ccccc1C(F)(F)F
→ 2%, 2%, 3%
- O=c1cc(-c2ccc(O)c(O)c2)oc2c1ccc1ccccc12
→ ?, -3%, -4%
- C[C@H](CO)N1C[C@H](C)[C@@H](CN(C)CC2CCCCC2)Oc2c(NC(=O)CCC(F)(F)F)cccc2C1=O
→ 7%, -32%, 17%
- C[C@@H]1COC(=O)[C@@H](CC(=O)OC(C)(C)C)C/C=C\C[C@@H](CC(=O)N[C@H](CO)Cc2ccccc2)C(=O)N1
→ -4%, 0%, 6%
- CC(C)C(NC(=O)c1c(F)cccc1F)C(=O)N1CCN(S(=O)(=O)/C=C/c2ccccc2)CC1 (stereo not drawn)
→ -10%, 5%, -12%
- O=C(/C=C/c1ccc(Cl)cc1)Nc1ccc(S(=O)(=O)Nc2ncccn2)cc1
→ 2%, 0%, 3%
- COc1ccccc1CNC(=O)C1(NC(=O)Nc2ccc(C)cc2)CCCCC1
→ 12%, 1%, -4%

In the list so far, these have a COOH group.
Value order: StopGo reporter, SARS PLpro yeast, RE007 growth inh
- O=C(O)c1ccc(C(=O)Nc2ccc(F)cc2)cc1
→ -8%, -2%, -1%
- O=C(O)CCCn1c(=S)[nH]c2c(sc3ccc([N+](=O)[O-])cc32)c1=O
→ -3%, 0%, 0%

Assay outcomes (PubChem BioAssay)
